SmPrx2 inh: Schistosoma Mansoni Peroxiredoxins (Prx2). Schistosoma mansoni peroxiredoxin 2 (Prx2). S. mansoni Prx2 activity coupled to TGR/GSH (TGR is thioredoxin glutathione reductase), NADPH fluorescence loss, qHTS; some inactives read as strong as hits. Potency, µM. 0.07% of 65,000 active; active means full or partial inhibition curve with a strong effect at the top dose; inconclusive means weaker partial or single-point curve; inactive means no accepted curve; note: series up to 57 µM; many of its hits are not listed in these tables
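Enzyme mix: 100 uM NADPH, 25 nM TGR, 700 uM GSH, 50 nM Prx2 in 100 mM phosphate pH 7.4, 10 mM EDTA, 0.01% Tween-20. 15 min RT with compound; NADPH/GSH added, H2O2 starts reaction; NADPH fluorescence read 8 min.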
Anthrax LT inh: qHTS Assay for Anthrax Lethal Toxin Internalization | Cells, anthrax lethal toxin internalization, FRET ratio (460/530) | Potency, µM (series often up to 40 µM), without a hit: at the top dose activity change, negative = inhibition, actives largely listed as inhibitors | 0.67% of 70,000 active; active = well fitted falling ratio curve with the 530 nm signal flat; inconclusive = other ratio curves, or a change in one channel alone; inactive = flat curves in the ratio and both channels; the % refers to the ratio; note: % is set by controls: 0 for no effect and ±100 for the full control effect; nearly all actives have a fitted effect of over 50% in size; tested in ME-180 cells; beta-lactamase reporter
An asterisk follows results filed as active; ? = inconclusive; . = no result given; & = joins results of further samples; [ ] = another dose, or the depositor's remark. Potency is the fitted concentration of half-maximal effect.

Screens in order: SmPrx2 inh | Anthrax LT inh
- CCOC(=O)C1=C(C)NC(=O)C1(NC(=O)c1cccnc1)C(F)(F)F (centres undefined)
  >57 | 0%
- COc1ccc(-c2cc(C(F)(F)F)nc(SCC(=O)N3CC(C)OC(C)C3)n2)cc1OC (centres undefined)
  >57 | -2%
- CCc1cc2c(SCC(=O)c3cccs3)ncnc2s1
  >57 | -8%
- Cc1ccc(C(c2nnnn2C(C)(C)C)N2CCc3ccccc3C2)cc1 (centres undefined)
  >57 | -8%
- CCOC(=O)C1CCN(C(=O)Nc2ccc(OC)c(OC)c2)CC1
  >57 | 14%
- CC(=O)c1ccc(NC(=O)C2CC(c3ccc(F)cc3)=NO2)cc1 (centres undefined)
  >57 | -5%
- C/C(CC/C(C)=N/O)=N/O
  >57 | 3%[8 µM]
- O=C(O)c1cc(NCc2ccc3c(c2)OCO3)ccc1N1CCOCC1
  >57 | -7%
- COc1ccc(Oc2cn[nH]c2-c2ccc(O)cc2O)cc1
  >57 | -11%
- CC(C)NC(=O)N1CC2(CCN(C(=O)c3cccn3C)CC2)C1
  >57 | ?
- CCOc1ccc(C2CC(c3cccc(OC)c3)Nc3ncnn32)cc1 (centres undefined)
  >57 | -13%
- COC(=O)CNC(=O)C1CCN(c2nc(C)cc(C)n2)CC1
  >57 | 2%
- COc1ccc(CCNC(=O)C2CCN(Cc3nc(-c4cccc(Cl)c4)oc3C)CC2)cc1OC
  >57 | ?
- O=C(CC(=O)N1CCN(c2ccccn2)CC1)Nc1ccc2nc3n(c(=O)c2c1)CCCCC3
  >57 | 8%
- CCOc1ccc(NC2=NCCC(=O)N2Cc2cccs2)cc1
  >57 | -18%
- O=C(O)C1C2C=CC3(O2)C1C(=O)N1c2ccccc2C2OCCC2C13 (centres undefined)
  >57 | 2%
- CCOCc1cc(C)[nH]c(=O)c1C#N
  >57 | 6%
- Cc1cccc(CS(=O)(=O)Cc2ccc(C(=O)NCCCN3CCOCC3)o2)c1
  >57 | 2%
- O=C(CCn1c(=O)oc2ccccc21)N1CCN(C(c2ccccc2)c2ccccc2)CC1
  >57 | ?
- Cc1cc2c3c(c1)C1(C(=O)N3C(C)(C)CC2C)C(C#N)=C(N)Oc2cc(O)ccc21 (centres undefined)
  >57 | -14%
- O=C(NC(Cc1ccccc1)C(=O)O)OCc1ccccc1 (centres undefined)
  . | -14%
- CCn1c(Cn2nnc(-c3ccccc3)n2)nnc1SCC(=O)Nc1ccc(N(C)C)cc1
  >57 | -8%
- Cn1c(=O)[nH]c(=O)c2c1nc(CN(Cc1ccccc1)Cc1ccccc1)n2CCN1CCOCC1
  >57 | -5%
- O=c1c(CN2CCN(Cc3ccccc3)CC2)coc2ccc(Cl)cc12
  >57 | -16%
- CN1CCc2c(sc3c2C(=O)NC(c2ccco2)N3)C1 (centres undefined)
  >57 | ?
- Cc1cc(C(=O)NCc2ccc3c(c2)OCO3)n(-c2ccccc2)n1
  >57 | -4%
- Cc1oc(-c2ccccc2F)nc1CS(=O)(=O)CC(=O)NCc1ccco1
  >57 | -5%
- CCN(CC)S(=O)(=O)c1ccc2oc(SCc3ccc(F)cc3)nc2c1
  >57 | ?
- COc1ccc(NC(=O)N2CCC3(CC2)CCN(C(=O)c2cc(C(F)(F)F)cc(C(F)(F)F)c2)CC3)cc1
  >57 | 11%
- CCc1ccccc1N1C[C@@]23C=C[C@@H](O2)C(C(=O)OCC(C)C)[C@H]3C1=O (some centres undefined)
  >57 | 10%

Retrieved by structure from the entries so far (three):
Screens in order: SmPrx2 inh | Anthrax LT inh
- CCOc1ccc(NC2=NCCC(=O)N2Cc2cccs2)cc1
  >57 | -18%
- COc1ccc(NC(=O)N2CCC3(CC2)CCN(C(=O)c2cc(C(F)(F)F)cc(C(F)(F)F)c2)CC3)cc1
  >57 | 11%
- COc1ccc(-c2cc(C(F)(F)F)nc(SCC(=O)N3CC(C)OC(C)C3)n2)cc1OC (centres undefined)
  >57 | -2%

Further records:
Screens in order: SmPrx2 inh | Anthrax LT inh
- CC1(C)OC(C(O)(c2cccc3c2oc2ccccc23)c2cccc3c2oc2ccccc23)C(C(O)(c2cccc3c2oc2ccccc23)c2cccc3c2oc2ccccc23)O1 (centres undefined)
  . | -2%[8 µM]
- Cc1c(N=C/C=C/c2ccccc2)c(=O)n(-c2ccccc2)n1C
  >57 | 0%
- CCOC(=O)C1C(=O)CC(C)(O)C(C(=O)OCC)C1c1ccco1 (centres undefined)
  . | -8%
- O=C(CCn1c(=S)[nH]c2cc3c(cc2c1=O)OCO3)N1CCN(C2CCCCC2)CC1
  >57 | 0%
- COC(=O)c1[nH]c(C)c(/C(O)=C2\C(=O)C(=O)N(CCN(C)C)C2c2cccc(OC)c2OC)c1C (centres undefined)
  >57 | 1%
- C(=N\c1nc2ccccc2[nH]1)/c1cccs1
  >57 | 3%
- CNC(=O)[C@@H]1O[C@@H](n2cnc3c(NCc4cccc(I)c4)ncnc32)[C@H](O)[C@@H]1O
  >57 | -8%
- Cc1nnc(NC2=NCCC2)s1
  >57 | -2%
- Cc1noc(C)c1S(=O)(=O)N(CC(=O)N1CCn2c1nc1ccccc12)c1ccc(C(C)C)cc1
  >57 | ?
- CCCc1cc(C(=O)Nc2sc3c(c2C(=O)OCC)CCCC3)no1
  >57 | -12%
- O=C(c1cnccn1)N1CCC2(CC1)CN(c1ccccn1)C2
  >57 | -10%
- COc1ccc(C(=O)N2CCC3(CCN(Cc4ccncc4)CC3)CC2)cc1
  >57 | ?
- Cc1ccccc1-c1nc(CN2CCC(C(=O)NCCC3=CCCCC3)CC2)c(C)o1
  >57 | 7%
- OC(CN1CCN(c2ccccn2)CC1)Cn1c2ccccc2c2ccccc21 (centres undefined)
  >57 | ?
- CCOc1ccccc1C1C(C#N)=C(N)Oc2n[nH]c(CC)c21 (centres undefined)
  >57 | 17%
- CN1CCN(C(=O)c2ccc3c(c2)N(Cc2ccc(Cl)cc2)C(=O)c2ccccc2S3=O)CC1 (centres undefined)
  >57 | 9%
- Cc1ccsc1C=Nc1ccc(O)cc1
  >57 | ?
- O=C(CCN1C(=O)c2ccncc2C1=O)NCc1ccc(Cl)cc1
  >57 | 9%
- CC1CCC(NC(=O)c2ccc(CS(=O)(=O)Cc3ccccc3F)o2)CC1 (centres undefined)
  >57 | ?
- Cc1nc2sc(C(c3cccs3)N3CC(C)CC(C)C3)c(O)n2n1 (centres undefined)
  >57 | ?
- CCCS(=O)(=O)N1CCN(C(=O)c2ccco2)CC1
  . | -1%
- CN(C)c1ncc2nc(CCc3ccccc3)c(=O)n(-c3ccccc3)c2n1
  >57 | ?
- CCn1cc(C(=O)Nc2cccc(NC(C)=O)c2)c2cc(OC)c(OC)cc2c1=O
  >57 | 2%
- C/C=C/c1ccc(Oc2nnnn2-c2ccc(C(N)=O)cc2)c(OC)c1
  >57 | -22%
- O=C(CSc1nc(-c2ccccc2)cs1)NC(=O)NCc1ccco1
  >57 | ?
- c1ccc(-c2nnn(C34CC5CC(CC(C5)C3)C4)n2)cc1
  . | -22%
- CCOc1cc(C2NC(=O)NC(O)(C(F)(F)F)C2C(=O)c2ccc(OC)cc2)ccc1O (centres undefined)
  >57 | -12%
- COc1ccc(CCNS(=O)(=O)c2ccc3oc(C(=O)O)c(C)c3c2)cc1OC
  >57 | .
- O=C(c1cc(C(F)(F)F)cc(C(F)(F)F)c1)N1CCC[C@@]2(CCN(Cc3nccs3)C2)C1
  >57 | 5%
- COc1cc(NC(=O)Cc2cccs2)ccc1-n1cnnn1
  >57 | -5%

Profiles, quoted from the list. Screens in order: SmPrx2 inh, Anthrax LT inh
Cc1ccccc1-c1nc(CN2CCC(C(=O)NCCC3=CCCCC3)CC2)c(C)o1 as listed: >57, 7%
Cc1c(N=C/C=C/c2ccccc2)c(=O)n(-c2ccccc2)n1C as listed: >57, 0%

Other records:
Screens in order: SmPrx2 inh | Anthrax LT inh
- CN(C)C=Nc1nonc1N
  >57 | 1%
- CC(C)(C)C(=O)CN1C(=O)C2(OCCO2)c2ccccc21
  >57 | -4%
- O=C(Cn1ncc2c1-c1ccccc1OC2)Nc1nc2ccccc2s1
  >57 | ?
- O=C1CCCN1CN(C(=O)c1ccccc1)c1ccc(F)cc1
  >57 | 7%
- Cn1c(=O)c2[nH]c(SCCN3CCOCC3)nc2n(C)c1=S
  >57 | -5%[8 µM]
- CCOc1ccccc1NC(=O)N1CCCC1C(=O)Nc1ccc(NC(C)=O)cc1 (centres undefined)
  >57 | -5%
- O=C(O)CCCc1nc(-c2ccccc2)no1
  >57 | ?
- O=c1oc2ccccc2c2nccnc12
  . | 0%
- O=C(CN(c1ccc(F)cc1)S(=O)(=O)c1ccc2c(c1)OCCO2)Nc1ccc2c(c1)OCO2
  >57 | -18%
- CCn1c(SCC(=O)Nc2cccc(NC(=O)c3ccco3)c2)nnc1-c1cccs1
  >57 | ?
- CS(=O)(=O)N(CC(=O)NCc1ccncc1)Cc1ccc(Cl)cc1
  >57 | -7%
- CC(C)(C)c1cnnn1-c1ccc(-c2csc(N)n2)cc1
  >57 | 8%
- Cn1c(=O)c2c(nc(NCCc3ccccc3)n2Cc2ccc(F)cc2)n(C)c1=O
  >57 | ?
- CC(C)C[C@@H](CC(=O)N[C@H](CC(=O)N[C@@H]1CCCC[C@H]1C(=O)N[C@H](CC(=O)N[C@@H](CCC(=O)O)CC(=O)O)Cc1c[nH]c2ccccc12)C(C)C)NC(=O)[C@@H]1CNCC[C@H]1N
  >57 | -4%
- CCOc1ccc2nc(SC(CC)C(=O)Nc3cc(C)on3)sc2c1 (centres undefined)
  . | 1%
- O=C(Nc1ccccc1C(=O)N1CCOCC1)c1ccco1
  >57 | -13%
- COc1ccc(CN(CC2CCCO2)S(=O)(=O)c2ccc(C(=O)O)cc2)cc1OC (centres undefined)
  >57 | -18%
- NS(=O)(=O)c1ccc(N=Nc2ncccc2O)cc1
  >57 | -4%[8 µM]
- COC(C)=O
  . | 3%
- Cc1cc(C)nc(SCCS(=O)Cc2ccc(Cl)cc2)n1 (centres undefined)
  >57 | -1%
- Cn1c(=O)oc2cc(S(=O)(=O)N3CCC(C(=O)Nc4ccc(OC(F)(F)F)cc4)CC3)ccc21
  >57 | -10%
- NN=C(N)N
  >57&>57&>57 | ?
- Cn1c(Cc2cccs2)n[nH]c1=S
  >57 | -8%
- O=C(O)c1ccc2c3c1cccc3c(=O)n1c3ccccc3nc21
  >11 | ?
- Cn1c(=O)c2c(-c3ccccc3)n(Cc3cccnc3)cc2n(C)c1=O
  >57 | 6%
- OCC#CCSc1nnc(-c2ccncc2)o1
  >57 | 9%
- O=C(O)c1ccc(B(O)O)cc1
  . | 8%
- CCCCCCSC1=C(C#N)C(c2ccc(O)cc2)CC(=O)N1 (centres undefined)
  >57 | -18%
- Cc1ccc(NC(=O)c2noc3c2CCCCC3)cc1
  >57 | 0%
- CCNc1ncc2nc(CCc3ccccc3)c(=O)n(Cc3cccc(OC)c3)c2n1
  >57 | ?
- C=C(CO)[C@H]1Cc2c(ccc3c(=O)c4c(oc23)COc2cc(OC)c(OC)cc2-4)O1
  >57 | -15%
- CCN(CC(=O)Nc1cccc(C(C)=O)c1)S(=O)(=O)c1ccc(OC)cc1
  >57 | -3%
- Cc1ccc(NC(=O)C2CCCN(c3ncccn3)C2)cc1F (centres undefined)
  >57 | -8%
- O=C(O)CNC(=O)[C@@H](CS)Cc1ccccc1
  >57&>57 | ?
- COc1ccc(OC(C)=O)c(C2c3cc(OC)c(OC)cc3CCN2C(C)=O)c1 (centres undefined)
  . | 5%
- O=C(C1CCCN(S(=O)(=O)Cc2ccccc2)C1)N1CCc2ccccc21 (centres undefined)
  >57 | -11%
- CN1C(=O)N(C)C(=O)C2(Cc3ccccc3N3CCOCC32)C1=O (centres undefined)
  >57 | -4%
- C[C@@H](c1ccccc1)N1C(=O)[C@H]2[C@@H]3[C@H](O)C=CC(=O)[C@H]3CC[C@H]2C1=O
  . | 5%[8 µM]
- Cc1cc(NC(=O)CN2CCCC2c2nc3ccccc3s2)no1 (centres undefined)
  >57 | 6%
- Cc1nnc(SC(C)C(=O)Nc2ccc(S(=O)(=O)N3CCCCC3)cc2)s1 (centres undefined)
  >57 | -13%
- CCN(CC)C(=O)c1cn(C)c(=O)c2cc(OC)c(OC)cc12
  >57 | 6%
- Cn1cccc1C(=O)Nc1nc(-c2ccccn2)cs1
  >57 | -18%
- COC(=O)C/C=C\[C@@H](C)[C@@H](/C=N\O[C@@H]1O[C@H](COC(C)=O)[C@H](OC(C)=O)[C@H](OC(C)=O)[C@H]1OC(C)=O)OC
  . | -9%[8 µM]
- CC(=O)C1=C(C)Nc2ncnn2C1c1ccc(Cl)cc1Cl (centres undefined)
  >57 | .
- COC(=O)c1ccccc1NC(=O)CSc1nnc(-c2ccoc2C)n1C
  >57 | 4%
- O=C1OC(=O)c2ccccc21
  . | -2%
- CCOC(=O)N1CCC2(CC1)C(C#N)=C(N)Oc1n[nH]c(CSc3ccc(C)cc3)c12
  >57 | -18%
- COc1ccccc1C(=O)NCCCN1CCCC1=O
  >57 | -3%
- C=CCn1cnc2c(c1=O)c1nc3ccccc3nc1n2/N=C/c1cccc(OC)c1OC
  >57 | 1%
- O=C(c1oc(=O)c2ccccc2c1-c1ccccc1)N1CCN(C2CCCCC2)CC1
  >57 | 0%
- COCCn1c(=O)c(-c2ccccc2)nc2cnc(N3CCOCC3)nc21
  >57 | ?
- O=C(c1ccccc1NS(=O)(=O)c1cccs1)N1CCCC1
  >57 | -16%
- COc1ccc(NC(=S)Nc2ccccc2)cc1
  . | 2%[8 µM]

Assay outcomes as filed in PubChem.

Only part of the results is shown; count on the stated rates, not on these rows.
